NS1 inh – qHTS Assay for Inhibitors of Influenza NS1 Protein Function. S. cerevisiae slowed by influenza A NS1, growth recovery by OD600. Potency, µM (titrated, usually from 46.1 µM), for inactives: top-dose activity, positive = more growth. 270,000 compounds, 0.4% hits. AID 2326, 2010; active means well fitted rising curve with a large enough effect; inconclusive means small, poorly fitted or top-dose-only effect; inactive means no such curve, though single readings can be large or run the other way; further: nearly all actives have a fitted effect of over 50% in size
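S. cerevisiae expressing influenza A NS1, grown in glucose, washed, then diluted 1:100 into pH 6.0 -URA galactose medium with 23 nl compound. Growth recovery read as OD600; NS1-free strain serves as control.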
2A StopGo – High Throughput Screening for Foot and Mouth Disease Virus Antivirals. Potency, µM (titrated, usually from 57.9 µM), inactives show top-dose signal change, negative = less light. 410,000 compounds, 1.2% hits. human cells with a luciferase reporter of 2A StopGo recoding; control for the full effect not named in the record; active = well fitted falling curve with a large enough effect; inconclusive = small, poorly fitted or top-dose-only effect; inactive = no such curve, though single readings can be large or run the other way; tested in HEK293T cells; further: on the % scale 0 is the no-effect control and ±100 the full control effect; nearly all actives have a fitted effect of over 45% in size; luciferase light after 4 h
RE007 growth inh – qHTS Assay for Inhibitors of the HIV-1 protein Vpr; S. pombe RE007 Vpr strain, BacTiter-Glo ATP luminescence, 24 h; control for the full effect not named in the record; Potency, µM (series often up to 92.2 µM), for the others: at the top dose activity change, negative = less growth; 360,000 compounds, 0.21% hits; active = well fitted falling curve with a large enough effect; inconclusive = small, poorly fitted or top-dose-only effect; inactive = no such curve, though single readings can be large or run the other way;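 further: on the % scale 0 is the no-effect control and ±100 the full control effect; nearly all actives have a fitted effect of over 50% in size; the assay follows cell death caused by Vpr and the record does not say whether a fall means rescue or toxicity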
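Fission yeast RE007 carrying one integrated HIV-1 vpr copy, seeded at OD 0.01 in PMG+AL medium with 23 nL pinned compound. Grown 24 h at 30 degrees; viability read by BacTiter-Glo luminescence after 5 min.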
SARS PLpro yeast – qHTS of Yeast-based Assay for SARS-CoV PLP. S. cerevisiae expressing SARS-CoV PLpro, growth rescue; control for the full effect not named in the record. Potency, µM (titrated, usually from 32.9 µM), without a hit: top-dose activity, positive = growth rescue. 330,000 compounds, 0.19% hits. AID 485353, 2010; active means well fitted rising curve with a large enough effect; inconclusive means small, poorly fitted or top-dose-only effect; inactive means no such curve, though single readings can be large or run the other way; further: 0% is about no effect; nearly all actives have a fitted effect of over 55% in size; growth read by luminescence after 48 h
Cruzain inh Det – qHTS Assay for Promiscuous and Specific Inhibitors of Cruzain (with detergent). purified cruzain, Z-FR-AMC fluorescence, 0.01% Triton. Potency, µM, inactives show max response, negative = inhibition, hits mostly inhibitors. 200,000 compounds, 0.43% hits. AID 1478, 2009;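 further: plate controls were neutral wells for no effect and buffer without enzyme for full effect; nearly all actives have a fitted effect of over 40% in size; top concentration of the series not given in the record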
Target sequence (P25779 123-467 limits assumed): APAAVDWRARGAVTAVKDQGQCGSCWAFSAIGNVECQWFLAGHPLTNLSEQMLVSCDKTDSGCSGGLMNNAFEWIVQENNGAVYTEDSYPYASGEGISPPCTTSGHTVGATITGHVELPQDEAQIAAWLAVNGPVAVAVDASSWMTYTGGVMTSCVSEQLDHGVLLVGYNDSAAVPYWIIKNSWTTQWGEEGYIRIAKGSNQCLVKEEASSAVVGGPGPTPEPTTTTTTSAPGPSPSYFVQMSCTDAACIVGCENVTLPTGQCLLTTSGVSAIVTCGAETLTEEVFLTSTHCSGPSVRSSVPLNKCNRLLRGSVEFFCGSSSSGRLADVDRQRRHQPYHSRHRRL
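15 min RT preincubation of 1.5 nM cruzain with compound, then 2 uM Z-FR-AMC added; kinetic AMC fluorescence, 60 s delta. Triton X-100 0.01%, pH 5.5.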
Cruzain inh noDet – qHTS Assay for Promiscuous and Specific Inhibitors of Cruzain (without detergent); AID 1476, 2009; 200,000 compounds, 2.3% hits; Potency, µM, without a hit: max response, negative = inhibition, usual class: inhibitors; purified cruzain, Z-FR-AMC fluorescence, no detergent; Cruzipain (Trypanosoma cruzi), P25779;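 further: plate controls were enzyme without inhibitor for no effect and buffer without enzyme for full effect; nearly all actives have a fitted effect of over 40% in size; top concentration of the series not given in the record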
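Detergent-free condition (0.00005% Triton X-100) in acetate buffer pH 5.5 with DTT. 1.5 nM enzyme and compound were pre-mixed 15 min, then 2 uM Z-FR-AMC substrate added; reaction progress from fluorescence change between first and third reads (60 s).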
LASV entry inh – qHTS for Inhibitors of binding or entry into cells for Lassa Virus; Lassa virus pseudotype entry inhibition, cell reporter; control for the full effect not named in the record; Potency, µM (titrated, usually from 37.9 µM), inactives show top-dose activity change, negative = inhibition, hits mostly inhibitors; 300,000 compounds, 1.2% hits; AID 540256, 2011; active means well fitted inhibition curve with a large enough effect; inconclusive means small, poorly fitted or top-dose-only effect, or effect the other way; inactive means flat fitted curve, though single readings scatter; tested in HEK293 cells; further: on the % scale 0 is the no-effect control and ±100 the full control effect; nearly all actives have a fitted effect of over 50% in size; luciferase read-out
Marburg entry inh – qHTS for inhibitors of binding or entry into cells for Marburg Virus. Marburg virus pseudotyped entry inhibition, cell reporter; control for the full effect not named in the record; about a third of the inactives were read at about 46 µM. Potency, µM (doses to about 37.8 µM), for inactives: at the highest dose activity change, negative = inhibition, actives largely listed as inhibitors. 300,000 compounds, 1.8% hits. AID 540276, 2011; active = well fitted inhibition curve with a large enough effect; inconclusive = small, poorly fitted or top-dose-only effect, or effect the other way; inactive = flat fitted curve, though single readings scatter; tested in HEK293 cells; about a fifth of its hits are not listed in these tables; further: on the % scale 0 is the no-effect control and ±100 the full control effect; luciferase read-out
Starred values were filed as active, the others as inactive; ? = inconclusive; nt = not tested or not shown; & = joins results of further samples; [ ] = another dose, or the depositor's remark. Unless noted, the call rests on the fitted dose curve; in most records, active means well fitted curve in the direction sought with a large enough effect; inconclusive means small, poorly fitted or top-dose-only effect, or another doubt; inactive means no such curve, though single readings can be large; an effect the other way counts as inactive or inconclusive. Potency means the concentration at half of the fitted maximal effect.

SMILES | NS1 inh | 2A StopGo | RE007 growth inh | SARS PLpro yeast | Cruzain inh Det | Cruzain inh noDet | LASV entry inh | Marburg entry inh
O=C(CSc1ccc2ccccc2c1)Nc1ccncc1 | -102% | 1% | 8% | -42% | -6.7% | -8% | -1% | -1%
CC1CCCN(C(=O)CSc2nnc(-c3cccs3)o2)C1 (centres undefined) | -3% | 54%[activator] | -3% | -2% | nt | nt | 0% | 0%[46.1 µM]
COc1ccc(-c2nnc(-c3ccccc3)o2)cc1OC | -37% | 49%[activator] | -30% | -11% | nt | nt | nt | nt
Cc1ccc(Nc2c3c(nc4ccccc24)CCC3)cc1F | nt | ? | nt | nt | -5.8% | 5% | -32%[46.1 µM] | ?
COc1cc(CNCCCSc2nnnn2C)cc(Br)c1OC | nt | -21% | nt | 2% | -0.4% | -10% | 5%[46.1 µM] | 4%[46.1 µM]
CCOc1ccc(-n2cc(C(=O)NCc3ccco3)c3cc(OC)c(OC)cc3c2=O)cc1 | 11% | ? | -1% | 4% | -3.6% | ? | ? | ?
O=S1(=O)CCOC[C@H](CC2CCCCC2)N1Cc1ccccc1Br | -11% | ? | -5% | -11% | nt | nt | nt | nt
COc1ccc(CC(=O)Nn2c(-c3ccccc3)nc3ccccc3c2=O)cc1 | -10% | ? | -10% | 12% | -2.5% | 9% | ? | ?
CNC(=O)COC(=O)c1cc(-c2ccco2)nc2ccccc12 | 6% | -3% | -3% | -1% | nt | nt | nt | nt
COC(=O)C1=C(C)NC(=O)NC1C1CC=CCC1 (centres undefined) | 1% | nt | -1% | 6% | -1.5% | 3% | ? | ?
CC(=O)Nc1ccc2sc(C)nc2c1 | -1% | -1% | 18% | 0% | nt | nt | nt | nt
CCCn1cnc2cc(NCc3ccccc3OCC)ccc21 | nt | -11% | nt | nt | -6.9% | -2% | -9%[46.1 µM] | -4%[46.1 µM]
COc1ccccc1N1CCN(C(=O)COc2cccc(C)c2C)CC1 | nt | -23% | 1% | 0% | nt | nt | 13%[46.1 µM] | 0%[46.1 µM]
COc1ccc(-c2noc(CSc3nc4ccccc4c(=O)n3-c3ccc(C)cc3)n2)cc1 | 2% | 0% | 0% | 5% | 5.2% | 16µM* | nt | 0%
COc1ccccc1OCCCC(=O)NC(C)c1ccccc1 (centres undefined) | -2% | 2% | -18% | 1% | nt | nt | nt | nt
Cc1cccc(OCC(=O)N2CCN(c3nnc(-c4ccccc4)c4ccccc34)CC2)c1 | -12% | ? | 22% | -2% | nt | nt | nt | nt
O=C(CN1CCN(C/C=C/c2ccccc2)CC1)NC(=O)NC1CCCCC1 | nt | -14% | -15% | -1% | nt | nt | -2% | 23%[46.1 µM]
Cc1ccc(C)c(Nc2nc3nonc3nc2N2CCOCC2)c1 | -1% | -9% | -7% | 0% | 2.2% | -7% | 9% | 10%
COc1ccc(-c2cc3c(=O)n(CC(=O)NCc4ccccc4OC)ncn3n2)cc1 | -2% | -6% | -2% | 0% | nt | nt | nt | nt
CCC1CCCCN1CCCNC(=O)c1ccc(CS(=O)(=O)Cc2ccccc2F)o1 (centres undefined) | 4% | -7% | 0% | -7% | -0.7% | -1% | 4% | -23%&-23%
Cc1ccc(Cn2ccc(=O)c(OCc3c(Cl)cccc3Cl)c2C)cc1 | -1% | ? | ? | -38% | -7.8% | 11% | -23% | ?
Cn1nc([N+](=O)[O-])nc1Sc1ccc(Cl)cc1 | 4% | -26% | -17% | 19% | 3.5% | -7% | 19% | 7%
O=C(NNC(=O)c1ccc(Cl)cc1Cl)Nc1ccccc1 | -1% | -5% | -2% | 0% | -1.5% | 3% | 7% | -12%
CCc1ccc(N(C2C=CS(=O)(=O)C2)S(=O)(=O)c2ccccc2)cc1 (centres undefined) | -4% | -16% | -4% | -3% | -3.2% | -11% | -14% | -21%
C=CCN(C(=O)c1ccccn1)C(C(=O)NCc1ccccc1)c1ccccc1F (centres undefined) | -1% | -8% | 10% | 1% | nt | nt | nt | nt
CCCCCC(=O)Nc1ccc2oc(-c3cccnc3)nc2c1 | -15% | 0% | -3% | -7% | 11% | 19% | 8% | -3%&-2%
CCOc1cc(C(=O)NC2CC(C)(C)NC(C)(C)C2)cc(OCC)c1OCC | 10% | -6% | 4% | 4% | nt | nt | 16% | 5%
Fc1ccc(CNc2ncnc3c2cnn3-c2ccccc2)cc1 | -20% | 7% | -11% | nt | -4.0% | -8% | 0% | 9%[46.1 µM]
Cc1ccn2c(=O)cc(CSc3nnc(C)s3)nc2c1 | nt | 5% | nt | nt | -3.4% | -3% | ? | nt
CN(Cc1ccon1)Cc1cn(C)nc1-c1cccc(Cl)c1 | -2% | -12% | -22% | -2% | nt | nt | 13% | -5%[46.1 µM]
Cc1ccc(S(=O)(=O)n2oc(=O)c(C3CCCCC3)c2N)cc1 | nt | -11% | 2% | nt | nt | nt | 0%[46.1 µM] | ?
Cc1nc2c(cc(Oc3ccc(S(=O)(=O)N4CCOCC4)cn3)c3ccsc32)s1 | ? | 7% | -14% | -2% | -8.7% | 25% | 12% | -9%
Cc1cccc(C)c1-n1nnnc1S(=O)(=O)Cc1ccccc1Cl | 4% | 1% | -17% | nt | 3.9% | 4% | -3% | -22%
O=S(=O)(c1ccc(Cl)cc1)N1CCC(O)(CN2CCN(Cc3ccccc3)CC2)CC1 | nt | 0% | 2% | 0% | nt | nt | -29% | ?
O=C(NCCCc1ccc(F)cc1)C1CCC(=O)N(CC2CCCCC2)C1 (centres undefined) | 10% | -24% | -22% | 5% | nt | nt | -9% | 8%
CCS(=O)(=O)c1ccc2oc(SCC(=O)NCc3ccccc3)nc2c1 | -4% | -1% | -3% | 1% | nt | nt | 11% | 22%[46.1 µM]
CNC(=O)c1cc(Nc2nnc(-c3ccc(C)c(S(N)(=O)=O)c3)c3ccccc23)ccc1OC | -1% | 0% | 1% | -1% | nt | nt | ? | ?
Cc1cc2c(C)nc(Cc3ccccc3)nc2o1 | -2% | 11% | -19% | 8% | 4.9% | 5% | -3% | -6%&-6%
CN(c1cccc(NC(=O)CSc2ccc(Cl)cc2)c1)S(C)(=O)=O | -5% | ? | 7% | -7% | -4.4% | -7% | ? | -28%
CCCOc1ccc(/C=N/NC(=S)Nc2ccccc2[N+](=O)[O-])c(O)c1 | 21% | ? | 5% | 10µM* | -4.9% | 4µM* | 8.2µM* | ?
Cc1nn(C)c2c1c(C(F)(F)F)cc(=O)n2C(C)C(=O)N1CCN(c2ccccc2)CC1 (centres undefined) | nt | ? | nt | nt | -2.5% | ? | 6%[46.1 µM] | nt
CCN(C(=O)c1cccc(F)c1)c1ccccc1C | 0% | -11% | 16% | -3% | 5.2% | -9% | 10% | -36%
COC(=O)N/N=C/c1ccc(OCCSc2ccc(Cl)cc2)c(OC)c1 | 1% | -23% | -5% | -9% | -11% | ? | ? | -5%
O=C(CSc1nc2cc(Cl)ccc2s1)N1CCN(C(=O)c2ccco2)CC1 | -4% | -20% | -1% | -9% | -4.3% | 15% | ? | -13%&-13%
c1csc(CN2CCN(Cc3cccs3)C2c2cccs2)c1 | -13% | -30% | -18% | -1% | 4.2% | -19% | ? | 15%
Cc1cccc(OCC(=O)O/N=C(\N)c2ccc(Br)cc2)c1 | -4% | -3% | 3% | -5% | nt | nt | 12% | ?
CC(C)=NN1C(=O)c2ccccc2NC1(C)C | 0% | -5% | 2% | 0% | nt | nt | 22% | 16%
Cc1cccc(NC(=S)N2CCCCCC2)c1 | -4% | 0% | 0% | ? | 0.9% | 0% | -1% | ?
COC(=O)c1sc2cccc(F)c2c1S(=O)(=O)Nc1ccc(N(C)C)cc1 | nt | 16% | nt | nt | -12% | -12% | 29%[46.1 µM] | nt
Cc1ccc(Cn2c(SCc3ccc(C(=O)NC4CCCC4)cc3)nc3ccncc32)cc1 | nt | ? | nt | nt | -7.9% | -3% | -26%[46.1 µM] | 8%[46.1 µM]
Next compounds:
SMILES | NS1 inh | 2A StopGo | RE007 growth inh | SARS PLpro yeast | Cruzain inh Det | Cruzain inh noDet | LASV entry inh | Marburg entry inh
CN(C)c1ccc(/C=C(\C#N)c2ccccn2)cc1 | 2% | ? | ? | -50% | -9.1% | -13% | 1.4µM* | 1.2µM*
CCc1ccc(-c2nc(C)c(CCO)c(=O)[nH]2)cc1 | -3% | 15% | 1% | -1% | nt | nt | ? | 1%[46.1 µM]
N[C@@H](CO)c1cn([C@@H](Cc2cc3ccccc3[nH]2)C(=O)N2CCNCC2)nn1 | -2% | 1% | 4% | 1% | nt | nt | nt | nt
COc1ccc(Cn2c(C)nc3c(c2=O)c2nc4ccccc4nc2n3Cc2ccco2)cc1 | 30% | -22% | 8% | nt | nt | nt | nt | 8%
CCc1ccc2n(-c3ccc(OC)cc3)c([S-])c(C(=O)Nc3cc(C)cc(C)c3)[n+]2c1 | -3% | -7% | 6% | -1% | nt | nt | 16% | 26%[46.1 µM]
COc1ccccc1Nc1nnc(C)c(=O)[nH]1 | -4% | 19% | -8% | -2% | 1.3% | -1% | 9% | -14%
COc1ccccc1-n1c(CCC(=O)O)ccc1-c1ccccc1 | 5% | 1% | -1% | -7% | nt | nt | nt | nt
COc1ccc(NC(=O)CCSc2nc(-c3ccc(OC)cc3)cc(C(F)(F)F)n2)cc1 | nt | -7% | nt | nt | -1.3% | -4% | -2%[46.1 µM] | -3%[46.1 µM]
Cc1cc(C(C)(C)CC(C)(C)C)ccc1OCCOCC[N+](C)(C)Cc1ccccc1 | nt | ? | 3%[18.4 µM] | nt | -3.1%&-4.3% | 24%&3% | nt | nt
COCCn1c(=S)[nH]c2cc(C(=O)N3CCN(c4cccc(Cl)c4)CC3)ccc2c1=O | 9% | -28% | 1% | 3% | nt | nt | nt | nt
COc1ccccc1N1CCN(C(=O)CN(Cc2ccc(Cl)cc2)S(C)(=O)=O)CC1 | -11% | ? | 13% | 3% | -4.9% | ? | ? | -26%

Screening results (PubChem BioAssay)
